Menin-MLL FL inh: inhibitors of human menin-MLL interaction, wild-type MLL peptide. Fluorescence polarization, fluorescein-MLL peptide displacement from menin. FP activity change, % at 61.4 µM. 290,000 tested, under 10 active. AID 1766; inconclusive = falling polarisation curve, or a change in total fluorescence; inactive = total fluorescence flat and polarisation flat or rising; no compound was filed as active; the % refers to the polarisation; negative = inhibition;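 further: % of control where 0% means no effect; inhibitors lower the polarisation; unlabelled MLL peptide was the positive control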
ClpP mod: qHTS Assay for Activators of ClpP | purified B. subtilis ClpP, FRET peptide cleavage, 20 min | ATP-dependent Clp protease proteolytic subunit (Bacillus subtilis (strain 168)), P80244 | AID 651965, 2013 | actives 1.9% (n = 340,000) | Potency, µM (series often up to 57.5 µM), inactives show at the top dose activity change, negative = active; active = well fitted falling curve with a large enough effect; inconclusive = small, poorly fitted or top-dose-only effect; inactive = no such curve, though single readings can be large or run the other way; further: potency means the concentration at half of the fitted maximal effect; the source files actives as falling curves though it sought activators and does not explain the sign; nearly all actives have a fitted effect of over 65% in size; many hits overshoot -100%
Target sequence (P80244 whole entry, looked up): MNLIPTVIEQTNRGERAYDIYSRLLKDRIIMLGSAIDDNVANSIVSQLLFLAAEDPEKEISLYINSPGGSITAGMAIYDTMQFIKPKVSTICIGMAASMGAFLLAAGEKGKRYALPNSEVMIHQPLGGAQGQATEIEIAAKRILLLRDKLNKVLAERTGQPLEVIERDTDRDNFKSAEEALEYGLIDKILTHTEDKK
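Purified B. subtilis ClpP, 10 microg/mL final in Tris/HCl pH8 with KCl, BSA, glycerol and Tween-20, cleaved an Abz/nitrotyrosine-quenched decapeptide. Fluorescence (ex 320, em 430) was read at 0 and 20 min at room temperature. Delta was normalized to 5.8 microM ADEP and DMSO/no-enzyme controls.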
gsp antagonist: gsp mutant antagonism; gsp-mutant cells, cAMP HTRF, 30 min; control for the full effect not named in the record; Potency, µM (highest dose often 76.9 µM), inactives show at the top dose activity change, negative = inhibition, hits mostly inhibitors; actives 0.4% (n = 340,000); active = falling curve of any shape with a large fitted effect; inconclusive = falling curve, mostly with a smaller effect; inactive = flat or rising curve; cell line not stated here;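 further: intracellular cAMP measured with PDE inhibitor Ro 20-1724 present during compound exposure; potency means the concentration at half of the fitted maximal effect; on the % scale 0 is the no-effect control and ±100 the full control effect; nearly all actives have a fitted effect of over 65% in size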
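Cells, 2000/well, grown 16–24 h in DMEM 10% FBS with 0.5 mg/ml G418, then compounds plus […] (300 uM addition stock), 30 min at 37C. cAMP read by HTRF (cAMP-d2 and anti-cAMP antibody-K in lysis buffer) after 30 min RT.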
TRPV1 PAM: enhances activation of the human vanilloid receptor TRPV1. Q8NER1. TRPV1-expressing cells, Fluo-8 calcium influx, capsaicin EC20 potentiation; host cell line not named in the record; control for the full effect not named in the record. potentiation, % at 8.33 µM. actives 0.02% (n = 320,000); active means potentiation above 80%; inconclusive means 30% to 80%; inactive means below 30%; further: 0% is about no effect
Target sequence (Q8NER1 whole entry, looked up): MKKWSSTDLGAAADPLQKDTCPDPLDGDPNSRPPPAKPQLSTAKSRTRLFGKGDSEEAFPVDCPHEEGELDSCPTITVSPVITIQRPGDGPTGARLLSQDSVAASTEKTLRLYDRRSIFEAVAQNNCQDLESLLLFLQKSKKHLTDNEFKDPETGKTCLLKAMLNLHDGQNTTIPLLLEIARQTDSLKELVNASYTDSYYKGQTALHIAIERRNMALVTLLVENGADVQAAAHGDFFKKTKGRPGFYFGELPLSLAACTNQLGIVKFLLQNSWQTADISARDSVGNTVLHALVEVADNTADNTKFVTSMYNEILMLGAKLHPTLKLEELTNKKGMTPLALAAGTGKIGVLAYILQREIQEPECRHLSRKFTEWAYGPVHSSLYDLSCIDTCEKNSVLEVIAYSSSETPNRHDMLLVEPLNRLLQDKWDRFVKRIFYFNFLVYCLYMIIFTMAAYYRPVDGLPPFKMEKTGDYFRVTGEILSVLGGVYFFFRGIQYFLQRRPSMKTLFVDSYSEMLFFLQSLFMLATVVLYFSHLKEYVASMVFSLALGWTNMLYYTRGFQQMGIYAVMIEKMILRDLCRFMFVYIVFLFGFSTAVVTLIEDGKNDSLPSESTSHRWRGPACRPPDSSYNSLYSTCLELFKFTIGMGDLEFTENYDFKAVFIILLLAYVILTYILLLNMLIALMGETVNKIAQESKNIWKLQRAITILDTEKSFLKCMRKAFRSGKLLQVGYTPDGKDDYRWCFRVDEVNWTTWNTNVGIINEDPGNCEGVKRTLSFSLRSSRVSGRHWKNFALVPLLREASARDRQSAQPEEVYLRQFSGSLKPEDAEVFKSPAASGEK
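TRPV1-expressing cells were cultured overnight at 35.5C and loaded with Fluo-8 calcium dye for 40 to 90 min at room temperature. After a 10 s baseline, compound was added and calcium influx was read kinetically for 3 min (ex 480/em 520 nm).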
gsp agonist: agonists of gsp mutant (McCune-Albright syndrome); gsp mutant cells, cAMP HTRF, 30 min; control for the full effect not named in the record; actives 0.13% (n = 340,000); Potency, µM (titrated, usually from 76.9 µM), without a hit: at the top dose activation (cAMP increase), most hits filed as activators; active = well fitted activation curve with a large enough effect; inconclusive = small, poorly fitted or top-dose-only effect, or another doubt; inactive = no such curve, though single readings can be large or run the other way; cell line not stated here;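 further: phosphodiesterase inhibitor Ro 20-1724 added with compounds to block cAMP breakdown; potency means the concentration at half of the fitted maximal effect; nearly all actives have a fitted effect of over 60% in size; about a fifth of the inactives were tested at one dose only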
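Cells in DMEM/10% FBS with G418 were pretreated with compounds in DMSO plus […] (300 uM stock) for 30 min at 37C. cAMP was measured by HTRF (cAMP-d2 plus anti-cAMP antibody-K) after 30 min at room temperature.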
TRPML1 inh: blocks the human TRPML1 channel; Q9GZU1; TRPML1-inducible cells, Ca2+ dye fluorescence, FDSS; hits give low values; inhibition of EC80 agonist-evoked calcium signal; activity change, negative = inhibition, % (concentration not given with the values); actives 0.02% (n = 390,000); AID 624415; in the data active means activity change below about -50%; inconclusive means about -30% to -50%; inactive means above about -30%;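 further: stimulus is agonist 54-4 at its EC80 concentration; on the % scale 0 is the no-effect control and ±100 the full control effect; compound concentration not given in the record; the text of the record puts the active cut at -80%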
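Calcium fluorescence in TRPML1-DL cells induced overnight with Tet: a 110 s read after compound pin addition, then a 110 s antagonist read after challenge with 54-4 at 4 uM final (EC80).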
Sfp PPTase inh: Sfp phosphopantetheinyl transferase inhibition. Q9F4F7. Biochemical Sfp PPTase activity, qHTS. Potency, µM, for inactives: max response, negative = inhibition, usual class: inhibitors. actives 3.5% (n = 310,000); active means well fitted inhibition curve with a large enough effect; inconclusive means small, poorly fitted or top-dose-only effect, or another doubt; inactive means no such curve, though single readings can be large or run the other way;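 further: the enzyme is Sfp with the accession as filed and its product quenches rhodamine fluorescence; potency means the concentration at half of the fitted maximal effect; 0% = enzyme reaction without inhibitor and -100% = no enzyme wells; top concentration of the series not given in the record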
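Buffer: 50 mM Hepes-Na pH 7.6, 10 mM MgCl2, 0.01% Nonidet P-40, 0.01% BSA. Enzyme 15 nM, pre-exposed to compound 15 min; substrates then added and fluorescence change tracked over 30 min.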
An asterisk follows results filed as active; u = inconclusive; x = not tested or not shown; [ ] = remark or other dose. This is a random part of the collection; overall some 4.9% were active at least once.

SMILES	Menin-MLL FL inh	ClpP mod	gsp antagonist	TRPV1 PAM	gsp agonist	TRPML1 inh	Sfp PPTase inh
Cc1cc(NC(=O)COC(=O)C2=COCCO2)c([N+](=O)[O-])cc1C	1.3	x	16.0%	1.1	-13.3%[15.4 µM]	-6.7	-0.5%
COCC(=O)Nc1nnc(Cc2ccc(OC)c(OC)c2)s1	4.1	0.4%	11.6%	-4.3	-28.4%	1.2	1.5%
COc1ccc(N(CC(=O)NC(C)c2ccccc2)S(=O)(=O)c2ccc(C)cc2)cc1 (configuration not stated)	2.7	0.7%	-43.6%	-12.0	5.3%[15.4 µM]	-4.6	18.3%
CC(OC(=O)c1cccs1)C(=O)NCc1ccc2c(c1)OCO2 (configuration not stated)	2.2	1.2%	-0.4%	-10.2	-6.1%	71.1	17.4%
O=C(CCN1C(=O)C2C3C=CC(C3)C2C1=O)Nc1c(F)cc(F)cc1Br (configuration not stated)	0.7	0.4%	0.9%	2.1	-14.5%	-15.7	0.1%
CCNC(=O)c1cccc(NC(=O)CN2C(=O)NC3(CCCCC3)C2=O)c1	x	1.2%	-0.6%	15.0	u	1.2	x
CCCOc1ccc(CN2CCOCC2)cc1OC	-1.3	-2.1%	-1.2%	21.4	44.0%	x	2.2%
O=C(NC(CSC(=O)c1ccccc1)C(=O)O)OCc1ccccc1 (configuration not stated)	x	1.8%	7.2%	x	-26.4%	10.7	x
CC(C)S(=O)(=O)C1=NSC2=NC(=O)/C(=C\c3ccc(-c4cccc(C(=O)O)c4)o3)C(=N)N21	u	-2.1%	8.3%	20.1	2.8%	0.2	14.1µM*
C=CCn1c(SCC(=O)N(CCO)CCO)nc2sc3c(c2c1=O)CCC3	6.4	1.0%	18.6%	8.7	-2.7%	-3.1	21.1%
C=CCn1c(C(C)NC(=O)CC)nc2ccccc21 (configuration not stated)	1.7	-1.2%	-2.2%	2.5	-1.9%	4.4	12.1%
CC1(C)C(C=C(Cl)Cl)C1C(=O)Nc1ccc([N+](=O)[O-])cc1 (configuration not stated)	8.8	-13.7%	-13.7%	-3.4	19.5%	-20.0	4.2%
COC(=O)C1=C(C)OC(N)=C(C#N)C1c1cc2cccc(C)c2nc1Cl (configuration not stated)	4.0	x	x	-9.0	x	x	-14.9%
S=c1[nH]nc2c3c4c(sc3ncn12)CCCC4	1.3	-0.4%	-11.6%	-7.9	u	4.8	56.2µM*
COc1ccc(NC(=O)CN2C(=O)CC(C)(C)S(=O)(=O)c3ccccc32)cc1	4.4	0.8%	4.9%	x	-19.1%	-6.4	-0.5%
CCCCN1C(=O)c2ccc(C(=O)Nc3cccnc3)cc2C1=O	0.0	1.3%	-9.8%	-20.2	14.4%	1.0	u
N#Cc1c(SCC(=O)Nc2nccs2)nc2c(c1-c1ccco1)CCCC2	23.1	-0.6%	3.4%	28.9	5.7%	4.9	20µM*
O=C1/C(=C/c2cccs2)SC(=S)N1CCCC(=O)N(CCO)c1ccccc1	-0.2	-2.4%	-9.6%	7.0	-1.0%[15.4 µM]	-6.9	-9.7%
Cc1ccc(N(CC(=O)NC(C)(C)C)C(=O)CS(=O)CC(=O)Nc2ccc(F)cc2)cc1 (configuration not stated)	-1.0	x	3.1%	7.1	u	3.2	u
Cc1nc2ccccc2n1CC(=O)N/N=C\C=C\c1ccccc1	5.7	1.3%	-13.2%	13.4	-84.0%[inhibitor]	-0.6	-5.7%
COC(=O)C(C)Oc1ccc2c(c1)O/C(=C\c1cccc(Br)c1)C2=O (configuration not stated)	4.2	-4.1%	-5.9%	-12.3	2.7%	-9.3	-9.5%
COc1cccc(CNc2nccs2)c1O	-0.7	0.4%	5.6%	-27.9	1.5%[15.4 µM]	9.8	15.1%
CCN1C(=O)/C(=C/c2cn(-c3ccccc3)nc2-c2cccnc2)SC1=S	x	x	u	x	-3.6%	-2.7	x
CCOC(=O)c1c(C)[nH]c(C(=O)CN2CC(C)OC(C)C2)c1C (configuration not stated)	-8.5	-7.0%	-1.8%	-3.0	-14.0%	-2.4	-2.8%
CCOc1ccc(CNC(c2ccccc2)c2ccccc2)cc1	-2.6	x	-2.0%	-2.7	-12.5%	1.3	-9.0%
CCCN(CC(=O)Nc1ccccc1C)C(=O)CCl	2.6	-2.5%	-2.0%	-4.1	3.8%[15.4 µM]	46.6	-5.0%
CNC(=O)n1ccc(C(=O)N2CCCCC2)n1	0.2	0.3%	5.7%	0.3	7.4%	-4.6	11.3%
CC(C)C[C@H]1CN=C(N(C)C)N1CC(C)C	x	-2.2%	-5.8%	x	u	5.9	x
Cc1onc(-c2ccccc2Cl)c1C(=O)Nc1cc(=O)n(C)c(=O)n1C	x	-27.8%	-2.8%	x	11.5%	-9.0	x
O=C(CSCc1ccc(Cl)cc1)c1ccco1	0.3	x	x	-15.5	x	x	u
CC(=O)Nc1ccc(/C=N/NC(=O)CCN2CCN(c3ccccc3)CC2)cc1	0.7	x	-6.7%	8.7	u	-0.3	17.9%
CCN(C(=O)c1cn(C)c(=O)c2cc(OC)c(OC)cc12)c1ccccc1C	2.7	-3.8%	6.6%	-16.5	1.5%	11.0	17.6%
COC(=O)C1=C(C)N(Cc2ccccc2)C(=NCC(C)C)N[C@H]1c1ccc(Br)cc1	11.0	x	x	-5.1	x	x	9.1%
CCCn1nc(Oc2nc(N(C)C)nc(N(C)C)n2)ccc1=O	-2.8	x	-5.1%	-0.3	-0.6%[15.4 µM]	11.3	0.4%
O=C(CCCCn1c(=O)[nH]c2ccsc2c1=O)NCC1CCCO1 (configuration not stated)	-0.3	0.5%	6.4%	-3.7	13.8%	-1.2	14.6%
CN(c1ccc(C(=O)N2CCOCC2)cc1)S(=O)(=O)c1ccc(Cl)cc1	x	-0.8%	-0.4%	-20.6	-21.3%	11.2	3.4%
CCOC(=O)C1=C(CSc2nc(-c3ccncc3)ccc2C#N)OC(N)=C(C#N)C1c1cccnc1 (configuration not stated)	u	-2.9%	7.9%	15.7	0.0%	-7.8	79.4µM*
Cc1noc(C)c1C(=O)NC(C)C1CCCO1 (configuration not stated)	0.3	-0.3%	11.1%	0.6	7.0%	12.4	13.8%
COCCN1CCN(C(=O)C2CCC(=O)N(CCCc3ccccc3)C2)CC1 (configuration not stated)	x	-19.6%	10.3%	-23.7	-8.9%	-5.7	8.3%
CC(C)c1ccc(S(=O)(=O)c2cn(Cc3ccc(F)cc3)c3cc4c(cc3c2=O)OCO4)cc1	7.1	x	x	2.5	x	x	6.7%
CC(Oc1cccc(Cl)c1)C(=O)Nc1ccc(S(=O)(=O)NC2=NCCCCC2)cc1 (configuration not stated)	x	-2.1%	0.2%	-1.6	-6.8%	5.2	x
O=C(Cn1c(NCCCO)nc2ccccc21)c1ccc(F)cc1	-6.3	-0.4%	7.9%	-8.2	-17.1%	-11.2	6.9%
O=S(=O)(Nc1cccc(-n2cnnn2)c1)c1ccccc1F	x	-1.3%	0.7%	-0.7	16.7%	-7.4	3.1%
CC(Sc1n[nH]c(N)n1)c1nc2scc(-c3cccs3)c2c(=O)[nH]1 (configuration not stated)	1.8	-7.6%	-25.7%	4.9	u	23.4	10.5%
CCOc1cc(C2NC(=S)NC(C)=C2C(=O)Nc2ccccc2)ccc1O (configuration not stated)	1.9	x	2.7%	-7.0	-11.8%[15.4 µM]	0.7	-29.1%
O=C(CSc1nnc(SCc2ccccc2)s1)N/N=C/c1ccc(C(=O)O)cc1	-8.6	x	0.0%	-14.4	9.8%[15.4 µM]	18.4	13.7%
O=C(c1ccc(=O)[nH]c1)N(Cc1ccco1)C1(C(=O)NC2CCCC2)CCCCC1	2.9	-1.3%	5.8%	10.5	12.1%[15.4 µM]	2.9	-1.4%
CCOc1ccc(NC(C)c2cc(Cl)ccc2O)cc1 (configuration not stated)	0.9	-0.4%	-6.7%[15.4 µM]	-7.3	13.2%	-1.2	20.1%
CCOC(=O)c1[nH]c2ccc(OC)cc2c1NC(=O)CCN1CCN(Cc2ccccc2)CC1	2.6	31.6µM*	-0.6%	6.2	14.9%	36.5	16.2%
Cc1ccnc(NC(=O)c2ccc(Cl)c(NC(=O)CCc3ccccc3)c2)c1	1.6	x	x	-11.5	x	x	3.9%

Full records, looked up by structure:
Shown for CCN(C(=O)c1cn(C)c(=O)c2cc(OC)c(OC)cc12)c1ccccc1C → Menin-MLL FL inh = 2.7; ClpP mod = -3.8%; gsp antagonist = 6.6%; TRPV1 PAM = -16.5; gsp agonist = 1.5%; TRPML1 inh = 11.0; Sfp PPTase inh = 17.6%
Shown for O=C(NC(CSC(=O)c1ccccc1)C(=O)O)OCc1ccccc1 (configuration not stated) → Menin-MLL FL inh = x; ClpP mod = 1.8%; gsp antagonist = 7.2%; TRPV1 PAM = x; gsp agonist = -26.4%; TRPML1 inh = 10.7; Sfp PPTase inh = x

Going on with the list.
SMILES	Menin-MLL FL inh	ClpP mod	gsp antagonist	TRPV1 PAM	gsp agonist	TRPML1 inh	Sfp PPTase inh
COC(=O)c1sc(NC(=O)/C=C/c2ccc(C)cc2)nc1C	0.0	286.4%	-8.8%	-5.6	-30.8%[inhibitor]	-26.3	3.9%
O=C(Cn1cnc2c(cnn2-c2ccccc2)c1=O)NC1CCCC1	3.9	-0.5%	-2.5%	-13.7	-17.7%	1.8	19.4%
CC1CC(C)CN(S(=O)(=O)c2ccc(C(=O)NNC(=O)c3ccccc3F)cc2)C1 (configuration not stated)	x	u	-6.0%	x	-1.3%[15.4 µM]	0.1	x
CCOc1ccc(-c2ccc(/C=C3/C(=N)N4C(C)=CSC4=NC3=O)o2)c([N+](=O)[O-])c1	-0.2	1.6%	u	13.1	-8.2%	18.7	-25.1%
CC(SCC(=O)NC12CC3CC(CC(C3)C1)C2)C(=O)O (configuration not stated)	-0.2	-18.6%	-8.6%	-0.9	-18.1%	-23.0	13.0%
COc1ccc(Cn2nnnc2CN(Cc2cc3cccc(C)c3[nH]c2=O)C2CCCC2)cc1	-1.4	-11.7%	-5.6%	23.5	-70.0%[inhibitor]	0.7	0.4%
Cc1cc(NC(=O)c2cnccn2)no1	u	x	x	5.3	x	x	-0.7%

Screens: PubChem BioAssay, National Center for Advancing Translational Sciences (NCATS)
